SMN2 splice enh – SMN2 splice variant enhancement | Potency, µM (series often up to 46.1 µM), without a hit: at the top dose activity change, positive = activation, usual class: activators | hit rate 2.8% among 210,000 | HEK293 SMN2-luciferase splicing reporter, luminescence, 30-36 h; further: % of control where 0% means no effect; nearly all actives have a fitted effect of over 55% in size
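HEK293 cells carry an SMN2 […]–luciferase reporter in which exon 7 inclusion puts luciferase in frame. Cells were plated 10-12 h before compound addition, then incubated 30-36 h at 37C. ONE-Glo luminescence was read; sodium butyrate at 4.5 mM final served as control.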
KDM4E inh – JMJD2E (human) inhibition | B2RXH2 | JMJD2E catalytic domain, FDH-coupled NADH fluorescence (FDH is formaldehyde dehydrogenase) | Potency, µM (series often up to 57.1 µM), for the others: at the highest dose activity change, negative = inhibition, most hits filed as inhibitors | hit rate 1.6% among 230,000 | AID 2147; active means well fitted inhibition curve with a large enough effect, not every such curve was filed as active; inconclusive means small, poorly fitted or top-dose-only effect, or another doubt; inactive means no such curve, though single readings can be large or run the other way;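 further: 0% = wells with enzyme and -100% = buffer wells without enzyme; nearly all actives have a fitted effect of over 50% in size; many of its hits are not listed in these tables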
Target sequence (B2RXH2 1-337 limits assumed): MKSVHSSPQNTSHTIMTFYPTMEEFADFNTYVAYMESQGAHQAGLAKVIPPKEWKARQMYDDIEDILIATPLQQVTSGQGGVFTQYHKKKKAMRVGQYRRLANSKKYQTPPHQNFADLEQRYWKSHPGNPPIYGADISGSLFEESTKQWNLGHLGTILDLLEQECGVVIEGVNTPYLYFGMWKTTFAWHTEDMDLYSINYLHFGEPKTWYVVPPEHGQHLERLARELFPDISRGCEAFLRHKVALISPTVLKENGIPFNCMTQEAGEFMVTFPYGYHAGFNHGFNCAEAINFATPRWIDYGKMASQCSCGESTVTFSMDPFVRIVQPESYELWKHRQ
Luc counter – counter-screen: inhibitors of Kinase-Glo firefly luciferase. hit rate 0.28% among 200,000. Potency, µM (doses to about 38.3 µM), inactives show at the top dose activity change, negative = inhibition, actives largely listed as inhibitors. AID 1379. Kinase-Glo luciferase, ATP luminescence, 8 min; further: on the % scale 0 is the no-effect control and ±100 the full control effect; nearly all actives have a fitted effect of over 60% in size
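Inhibition of Kinase-Glo luciferase light generation was assessed at 10 uM ATP in pH 7.2 imidazole buffer, with luminescence measured after eight minutes at ambient temperature.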
IMPase Li inh – IMPase inhibition in cells with lithium potentiation. CHO-M1 cells, IP1 TR-FRET (IP-One), carbachol + lithium. Potency, µM (series often up to 59.4 µM), inactives show at the top dose activity, negative = IMPase inhibition, usual class: inhibitors. hit rate 0.35% among 210,000. AID 1457;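 further: IP1 builds up when IMPase is blocked and the TR-FRET signal falls; plate controls were basal vehicle for no effect and high inhibitor control for full effect; nearly all actives have a fitted effect of over 50% in size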
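CHO cells stably expressing M1 receptor (2000/well) were cultured 16–30 h, then exposed to compounds with a small lithium addition for 30 min at 37C. IP1 was measured by TR-FRET competition; AC50 from Hill fits.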
Epigenetic derep – epigenetic control regulation, reporter derepression | murine LDR cells, GFP reporter derepression, 30 h | Potency, µM (top dose mostly 53.9 µM), inactives show top-dose GFP activation, actives largely listed as activators | hit rate 0.2% among 280,000 | AID 1865; further: % of control where 0% means no effect; nearly all actives have a fitted effect of over 60% in size
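Derepression of a silenced CMV-GFP reporter in murine LDR cells is scored by enumerating GFP-positive cells with a laser-scanning microplate cytometer after 30 hours of treatment at 37 C.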
RECQ1 helicase – blocks DNA unwinding by human RECQ1. P46063. RECQ1 DNA unwinding, red fluorescence kinetic read. Potency, µM (highest dose often 57.3 µM), without a hit: at the top dose activity, negative = inhibition, usual class: inhibitors. hit rate 0.54% among 240,000. AID 2549;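 further: plate controls were vehicle for no effect and no enzyme for full effect; nearly all actives have a fitted effect of over 30% in size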
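50 nM RECQ1T1 preincubated 15 min with compound in Tris pH 8.0 buffer with MgCl2, DTT, Tween-20 and 2.5 ug/ml poly(dI-dC); started with 200 nM TAMRA/BHQ-2 forked duplex and 2 mM ATP. Unwinding read as fluorescence (525/598 nm), two reads 2 h apart.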
RGS12 GoLoco inh – inhibitors of human Gai1-RGS12 GoLoco interaction (red fluorophore) | P63096 | Gai1:RGS12 GoLoco peptide FP, rhodamine, 10 min | Potency, µM (highest dose often 61.6 µM), inactives show top-dose activity, negative = inhibition, actives largely listed as inhibitors | hit rate 0.44% among 230,000; active means well fitted inhibition curve with a large enough effect, not every such curve was filed as active; inactive means no such curve, though single readings can be large or run the other way; further: on the % scale 0 is the no-effect control and ±100 the full control effect; nearly all actives have a fitted effect of over 30% in size; many of its hits are not listed in these tables
Target sequence (P63096 whole entry, looked up): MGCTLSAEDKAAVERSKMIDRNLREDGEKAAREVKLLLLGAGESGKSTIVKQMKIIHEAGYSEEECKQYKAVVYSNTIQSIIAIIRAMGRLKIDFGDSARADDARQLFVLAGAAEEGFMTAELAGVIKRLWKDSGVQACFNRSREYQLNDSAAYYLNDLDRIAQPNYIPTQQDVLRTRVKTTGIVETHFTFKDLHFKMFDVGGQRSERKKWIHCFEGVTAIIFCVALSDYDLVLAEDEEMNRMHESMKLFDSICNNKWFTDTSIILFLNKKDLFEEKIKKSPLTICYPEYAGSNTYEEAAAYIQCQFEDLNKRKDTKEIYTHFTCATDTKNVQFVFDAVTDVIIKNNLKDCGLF
Numbers without * were called inactive; i = inactive; ? = inconclusive; · = not tested or not shown; & = joins results of further samples; [ ] = another dose, or the depositor's remark. Unless noted, the call rests on the fitted dose curve; in most records, active means well fitted curve in the direction sought with a large enough effect; inconclusive means small, poorly fitted or top-dose-only effect, or another doubt; inactive means no such curve, though single readings can be large; an effect the other way counts as inactive or inconclusive. Potency means the concentration at half of the fitted maximal effect. An excerpt, so the mix of outcomes need not match the whole.

Compound	SMN2 splice enh	KDM4E inh	Luc counter	IMPase Li inh	Epigenetic derep	RECQ1 helicase	RGS12 GoLoco inh
c1ccc(CN2c3ccccc3-c3nc4ccccc4n3C2c2ccccn2)cc1 (stereo not given)	-22%	?	-5%	-14%[38.3 µM]	0.8%	-29%	2%
Cc1nn(-c2ccc(C(=O)O)cc2)c(=O)c2ccccc12	3%	3%	-5%	-8%[38.3 µM]	-2.6%	0%	-3%
O=C(N[C@@H](Cc1ccccc1)C(=O)O)c1cccnc1	-6%	-4%	-3%	11%[38.3 µM]	4.2%	-5%	1%
COc1ccc(N2CC(O)=C(c3nc(-c4ccc(Br)cc4)cs3)C2=N)cc1	-7%	8%	0%	-10%	0.5%	-9%	4%
O=C(NC(=S)Nc1ccccc1N1CCCC1)c1cccc(F)c1	-1%	-12%	0%	-8%	-2.0%	i	14%
Cc1ccc(Cl)cc1N1CCN(CC(=O)Nc2ccc3[nH]c(=O)[nH]c3c2)CC1	-30%	-4%	-1%	20%[38.3 µM]	0.0%	2%	2%
CCCOc1ccc(/C(O)=C2/C(=O)C(=O)N(c3cc(C)on3)C2c2ccc(C(=O)OC)cc2)cc1 (stereo not given)	-1%	-3%	-3%	-28%[38.3 µM]	-1.1%	8%	11%
Cc1cc(-c2ccccc2)c2c3c(cn2n1)c(=O)n(C)c(=O)n3C	-13%	-1%	1%	12%[38.3 µM]	-0.8%	-8%	10%
O=C(Nc1ccc(Oc2nnc(-c3ccccc3)c3ccccc23)cc1)c1ccccc1	-2%	-6%	-1%	4%	6.1%	1%	4%
O=[N+]([O-])/C(C(=C(Cl)Cl)N1CCN(Cc2ccccc2)CC1)=C1\NCCN1Cc1ccc(Cl)nc1	7%	-4%	-2%	13%	0.1%	-3%	-4%
CC(C)(C)C(=O)NC(=S)NNC(=O)c1ccc(Cl)cc1Cl	-17%	?	-2%	4%	-0.4%	4%	1%
CC(=O)Nc1ccc(NC(=O)Cn2c(=O)n(-c3ccc(F)cc3)c(=O)c3oc4ccccc4c32)cc1	-19%	-20%	-1%	-13%	0.9%	i	2%
CN(C)S(=O)(=O)c1cccc(NC(=S)N/N=C/c2ccco2)c1	·	-4%	·	·	3.5µM*	-6%	6%
CCc1ccc(N(CC(=O)Nc2nc3ccc(C)cc3s2)S(=O)(=O)c2c(C)noc2C)cc1	-1%	-21%	-1%	11%[38.3 µM]	1.9%	-19%	8%
Cc1noc(C)c1CSc1nc2sc(C)c(C)c2c(=O)n1C1CCCC1	-16%	5%	-2%	24%[38.3 µM]	0.0%	4%	-2%
CCCN=C(C)c1c(-c2ccccc2)[nH]n(-c2nc3ccccc3s2)c1=O	-34%[inhibitor]	-6%	20%	35%[38.3 µM]	0.8%	i	6%
CC(C)(O)C(=O)NN(C(=O)c1ccccc1)c1cccc(Br)c1	-14%	-1%	0%	4%[38.3 µM]	-0.9%	-3%	3%
COc1ccc(Cl)cc1C(=O)Nc1nc2ccc(S(C)(=O)=O)cc2s1	·	?	·	13µM*	-0.2%	-1%	3%
COC(=O)c1cc2ccsc2n1CC(=O)N(C)c1ccccc1	-3%	-7%	2%	2%[38.3 µM]	0.0%	-9%	-9%
CCCSc1nsc(NC(=O)C(c2ccccc2)c2ccccc2)n1	-27%	-12%	2%	27%[38.3 µM]	12%	-10%	49%[activator]
CCCCN=CC1=C(O)C(C(=O)OC)C(C)(C)CC1=O (stereo not given)	6%	0%	3%	13%[38.3 µM]	0.0%	8%	-15%
CC(C(=O)NC1CCCC1)N(Cc1ccco1)C(=O)c1snc(C(=O)NC2CCCC2)c1N (stereo not given)	-19%	?	1%	11%[38.3 µM]	0.1%	0%	4%
Cc1ccc(C(=O)Nc2sc3c(c2C(=O)NCc2ccco2)CCCC3)cc1	12%	?	17%	34%[activator][38.3 µM]	4.1%	-3%	10%
COc1ccc(C(=O)C(CN2CCOCC2)c2ccccc2)cc1F (stereo not given)	-92%[inhibitor]	-1%	-2%	-2%[38.3 µM]	?	i	2%
Cc1sc2nc(CN3CCCC3)nc(N3CCC(C(N)=O)CC3)c2c1C	5%	?	15%	29%[38.3 µM]	-2.2%	-17%	15%
CC1=NN(/C(=N\c2nnc(C)s2)Nc2ccc(C(C)(C)C)cc2)[C@H](c2ccc(C)cc2)S1	-3%	-10%	-2%	7%	-2.0%	-2%	0%
Cc1ccc(-c2nnc(N3CCC(C)CC3)c3ccccc23)cc1	-13%	-25%	0%	18%	-0.6%	1%	-5%
S=c1[nH]nc(COc2ccc(Cl)cc2)n1C1CCCCC1	-15%	?	0%	4%	0.7%	-7%	5%
CCc1c(C)nc2cc(-c3cc(OC)cc(OC)c3)nn2c1N1CCCC1	-6%	?	1%	15%[38.3 µM]	-2.1%	-5%	-2%
COc1cc2nc(SCc3c(C)noc3C)n(CCC3=CCCCC3)c(=O)c2cc1OC	?	5%	-2%	26%[38.3 µM]	-2.7%	-8%	-4%

For convenience, some entries already given:
Compound	SMN2 splice enh	KDM4E inh	Luc counter	IMPase Li inh	Epigenetic derep	RECQ1 helicase	RGS12 GoLoco inh
CC(C)(O)C(=O)NN(C(=O)c1ccccc1)c1cccc(Br)c1	-14%	-1%	0%	4%[38.3 µM]	-0.9%	-3%	3%
COc1ccc(Cl)cc1C(=O)Nc1nc2ccc(S(C)(=O)=O)cc2s1	·	?	·	13µM*	-0.2%	-1%	3%

Next part.
Compound	SMN2 splice enh	KDM4E inh	Luc counter	IMPase Li inh	Epigenetic derep	RECQ1 helicase	RGS12 GoLoco inh
CCOC(=O)c1sc2nc(Cc3ccc(Cl)cc3)[nH]c(=S)c2c1C	0%	8%	2%	7.9µM*	-2.0%	i	14%
CC/C(=N/NC(=O)c1ccccc1)c1ccc(OCCN2CCOCC2)cc1	7%	-4%	-6%	11%	-1.0%	7%	3%
CC(C)(C)c1ccc(-c2cc(C(=O)NNC(=O)Nc3ccccc3)c3ccccc3n2)cc1	14µM*	?	-10%	30%[38.3 µM]	0.0%	i	0%
CC(C)CCSc1nc(N2CCOCC2)c2c(c1C#N)CC(C)(C)OC2	·	-12%	·	·	-8.8%	-5%	·
O=c1sc(N2CCN(c3ccc(F)cc3)CC2)nc2ccsc12	?	8%	-1%	22µM*	5.9%	-15%	-2%
Cc1onc(-c2ccccc2Cl)c1C(=O)N(Cc1nc(-c2ccccc2)no1)C1CCCCC1	-56%[inhibitor]	-13%	1%	24%[38.3 µM]	0.3%	1%	2%
Cc1ccc(NNC(=O)C(O)(c2cccc(C(F)(F)F)c2)c2cccc(C(F)(F)F)c2)cc1	-70%[inhibitor]	5%	0%	13%	16%	-7%	-12%
CC(=O)Nc1sc2c(c1C(c1ccccn1)N1CCN(C)CC1)CCCC2 (stereo not given)	-3%	-5%	1%	19%	2.5%	2%	-3%
Cc1cccc(N2CCCC2=Nc2ccc(Br)cc2C#N)c1	-1%	10%	2%	3%[38.3 µM]	-1.0%	-12%	15%
CCCSc1nc(N2CCOCC2)c2c(c1C#N)CCCC2	·	-4%	·	·	-0.5%	-6%	·
Cc1nn(CCc2nn[nH]n2)c2nc(-c3ccc(Br)cc3)cc(C(F)(F)F)c12	-31%[inhibitor]	?	2%	2µM*	0.3%	-11%	4%
Cc1ccc(-n2c(-c3ccco3)nc3c(cnn3-c3ccc(C)cc3)c2=O)cc1	3%&-46%	4%	1%	?	5.7%&0.0%	-7%	16%
CCOC(=O)c1sc(NC(=O)c2c(C)nn(Cc3ccccc3)c2C)cc1C	-12%	?	-1%	20%	0.0%	-10%	5%
O=[N+]([O-])c1ccc(-c2nc(NCC3CCCO3)c3ccccc3n2)cc1 (stereo not given)	·	-1%	·	·	0.1%	-2%	-2%
Cc1c(Cl)cccc1NC(=O)c1cc(-c2ccccc2O)n[nH]1	0%	0%	0%	40%[activator][38.3 µM]	-1.8%	-8%	7%
CCN(Cc1ccccc1)C(c1ccc(C)cc1)c1nnnn1C(C)(C)CC (stereo not given)	-28%	-1%	0%	12%[38.3 µM]	-1.0%	-10%	7%
CCn1c(=O)c([N+](=O)[O-])c(N2CCN(Cc3ccc4c(c3)OCO4)CC2)c2ccccc21	·	1%	·	·	-0.7%	-14%	4%
Cc1nc(N)nc(-c2ccccc2O)n1	-18%	-5%	-3%	-23%[38.3 µM]	3.1%	-6%	14%
O=C(COc1ccccc1)Nc1ccccc1N1CCCCC1	-27%	0%	2%	19%[38.3 µM]	-2.9%	-15%	-7%
N=c1n(CCN2CCOCC2)c2ccccc2n1CC(=O)c1ccc(Cl)c(Cl)c1	-73%	7%	-10%	27%[38.3 µM]	?	9%	107%[activator]
O=C1C2C(c3ccccc3)C=CC(c3ccccc3)C2C(=O)N1C1CCCCC1 (stereo not given)	-5%	1%	-2%	34%[activator][38.3 µM]	-2.2%	i	-5%
Cc1c(Cl)cccc1NC(=O)c1cccc(OC(F)F)c1	-8%	-1%	-4%	24%[38.3 µM]	-1.5%	i	-4%
CC(C)=CCCC(C)CN1CCC(O)CC1 (stereo not given)	-2%	-7%	-3%	-9%[38.3 µM]	-0.7%	-4%	-3%
COC(=O)COc1cccc(NC(=O)c2cc(OC)cc(OC)c2)c1	-22%	-6%	-11%	8%	6.2%	i	15%
CCOC(=O)C1CCN(c2nc3ccccc3nc2C(C#N)C(=O)NCCc2ccccc2)CC1 (stereo not given)	-7%	-26%	-1%	16%[38.3 µM]	2.2%	-18%	17%
CC(=O)Nc1ccc(S(=O)(=O)Nc2nc3ccccc3nc2Nc2ccc3ccccc3c2)cc1	?	?	0%	8%	1.0%	-10%	-2%
COC(=O)c1c(NC(=O)Cc2cccs2)sc2c1CCC(C)C2 (stereo not given)	-1%	?	5%	-7%	-0.9%	-2%	12%
CC1(C)Cc2c(C#N)c(N3CCN(C(=O)c4ccccc4)CC3)nc(Cc3ccccc3)c2CO1	-18%	?	-3%	32%[activator][38.3 µM]	2.5%	16%	-14%
C[C@@H]1CC=C[C@H]2[C@H]1C(=O)N(Cc1ccccc1)[C@H]2c1ccc(Br)cc1F	·	8%	·	·	0.5%	i	7%
CCOC(=O)CSC1=C(C#N)C(c2ccco2)C(C(=O)OCc2ccccc2)=C(C)N1 (stereo not given)	·	?	4%	40%[activator][38.3 µM]	1.1%	-12%	4%
CC(C)OC(=O)CSc1nc2c(c(C3CC=CCC3)c1C#N)CCC2 (stereo not given)	-16%	?	-7%	6%[38.3 µM]	-1.5%	-4%	-6%
COc1ccc(CNc2nc(SC)n[nH]2)cc1OC	51%	-3%	-2%	25%[38.3 µM]	-1.2%	-1%	7%
